Marburg entry inh – blocks Marburg virus binding to or entry into cells | Marburg virus pseudotyped entry inhibition, cell reporter; control for the full effect not named in the record; about a third of the inactives were read at about 46 µM | Potency, µM (series often up to 37.8 µM), for the others: top-dose activity change, negative = inhibition, actives largely listed as inhibitors | AID 540276 | 300,000 tested, 1.8% active; active = well fitted inhibition curve with a large enough effect; inconclusive = small, poorly fitted or top-dose-only effect, or effect the other way; inactive = flat fitted curve, though single readings scatter; tested in HEK293 cells; about a fifth of its hits are not listed in these tables; further: on the % scale 0 is the no-effect control and ±100 the full control effect; luciferase read-out
SARS PLpro yeast – blocks SARS-CoV papain-like protease in a yeast assay; Potency, µM (highest dose often 32.9 µM), without a hit: top-dose activity, positive = growth rescue; S. cerevisiae expressing SARS-CoV PLpro, growth rescue; control for the full effect not named in the record; AID 485353; 330,000 tested, 0.19% active; further: 0% is about no effect; nearly all actives have a fitted effect of over 55% in size; growth read by luminescence after 48 h
Cruzain noTriton – cruzain (T. cruzi) inhibition without detergent. Potency, µM, without a hit: max response, negative = inhibition, actives largely listed as inhibitors. purified cruzain, Z-FR-AMC fluorescence, no detergent. 200,000 tested, 2.3% active. P25779. AID 1476; active means well fitted curve in the direction sought with a large enough effect; inconclusive means small, poorly fitted or top-dose-only effect, or another doubt; inactive means no such curve, though single readings can be large; an effect the other way counts as inactive or inconclusive;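 further: plate controls were enzyme without inhibitor for no effect and buffer without enzyme for full effect; nearly all actives have a fitted effect of over 40% in size; top concentration of the series not given in the record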
Target sequence (P25779 123-467 limits assumed): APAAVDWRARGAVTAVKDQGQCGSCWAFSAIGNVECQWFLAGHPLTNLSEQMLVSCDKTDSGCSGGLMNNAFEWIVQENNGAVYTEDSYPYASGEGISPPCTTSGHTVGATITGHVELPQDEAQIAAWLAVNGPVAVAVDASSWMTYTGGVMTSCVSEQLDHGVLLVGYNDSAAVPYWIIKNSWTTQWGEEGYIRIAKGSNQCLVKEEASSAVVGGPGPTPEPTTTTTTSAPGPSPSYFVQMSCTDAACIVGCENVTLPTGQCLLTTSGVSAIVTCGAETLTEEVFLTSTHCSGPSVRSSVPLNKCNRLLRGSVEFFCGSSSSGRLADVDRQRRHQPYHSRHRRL
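Purified cruzain at 1.5 nM, pre-incubated 15 min with compound at room temperature in 100 mM sodium acetate pH 5.5, 5 mM DTT, 0.00005% Triton X-100. Reaction started with 2 uM Z-FR-AMC; AMC fluorescence increase over 60 s gives rate.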
RE007 growth inh – less growth of the S. pombe RE007 Vpr strain; S. pombe RE007 Vpr strain, BacTiter-Glo ATP luminescence, 24 h; control for the full effect not named in the record; Potency, µM (titrated, usually from 92.2 µM), for the others: at the top dose activity change, negative = less growth; 360,000 tested, 0.21% active; AID 651644; active = well fitted falling curve with a large enough effect; inconclusive = small, poorly fitted or top-dose-only effect; inactive = no such curve, though single readings can be large or run the other way;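 further: on the % scale 0 is the no-effect control and ±100 the full control effect; nearly all actives have a fitted effect of over 50% in size; the assay follows cell death caused by Vpr and the record does not say whether a fall means rescue or toxicity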
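Fission yeast strain RE007, carrying one chromosomally integrated HIV-1 vpr copy, was seeded at OD 0.01 in PMG+AL medium with 23 nL pinned compound. After 24 h at 30 °C and 99% humidity, viability was read by BacTiter-Glo luminescence.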
LASV entry inh – Lassa virus entry inhibition. Lassa virus pseudotype entry inhibition, cell reporter; control for the full effect not named in the record. Potency, µM (highest dose often 37.9 µM), for the others: at the top dose activity change, negative = inhibition, most hits filed as inhibitors. 300,000 tested, 1.2% active; active means well fitted inhibition curve with a large enough effect; inconclusive means small, poorly fitted or top-dose-only effect, or effect the other way; inactive means flat fitted curve, though single readings scatter; tested in HEK293 cells; further: on the % scale 0 is the no-effect control and ±100 the full control effect; nearly all actives have a fitted effect of over 50% in size; luciferase read-out
2A StopGo – lowers the luciferase signal of an FMDV 2A StopGo reporter. Potency, µM (doses to about 57.9 µM), for inactives: at the highest dose signal change, negative = less light. 410,000 tested, 1.2% active. human cells with a luciferase reporter of 2A StopGo recoding; control for the full effect not named in the record; active = well fitted falling curve with a large enough effect; inconclusive = small, poorly fitted or top-dose-only effect; inactive = no such curve, though single readings can be large or run the other way; tested in HEK293T cells; further: on the % scale 0 is the no-effect control and ±100 the full control effect; nearly all actives have a fitted effect of over 45% in size; luciferase light after 4 h
NS1 inh – inhibitors of influenza NS1 protein function | S. cerevisiae slowed by influenza A NS1, growth recovery by OD600 | Potency, µM (top dose mostly 46.1 µM), for the others: at the top dose activity, positive = more growth | 270,000 tested, 0.4% active; further: actives are rising curves; nearly all actives have a fitted effect of over 50% in size
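In this qHTS, NS1 from influenza A is expressed in budding yeast, where it slows growth. Cells are switched from glucose to 2% galactose medium (pH 6.0, -URA), treated with compound, and growth recovery is read at OD600.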
Cruzain inh Det – cruzain (T. cruzi) inhibition with detergent. P25779. purified cruzain, Z-FR-AMC fluorescence, 0.01% Triton. Potency, µM, for inactives: max response, negative = inhibition, most hits filed as inhibitors. 200,000 tested, 0.43% active. AID 1478; active means well fitted curve in the direction sought with a large enough effect; inconclusive means small, poorly fitted or top-dose-only effect, or another doubt; inactive means no such curve, though single readings can be large; an effect the other way counts as inactive or inconclusive;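 further: plate controls were neutral wells for no effect and buffer without enzyme for full effect; nearly all actives have a fitted effect of over 40% in size; top concentration of the series not given in the record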
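Purified cruzain (1.5 nM final) was preincubated with compounds for 15 min at room temperature in 100 mM sodium acetate pH 5.5, 5 mM DTT, 0.01% Triton X-100. Reaction started with 2 uM Z-FR-AMC; AMC fluorescence change over 60 s gave activity.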
Numbers without * were called inactive; u = inconclusive; x = not tested or not shown; & = joins results of further samples; [ ] = remark or other dose. Unless noted, the call rests on the fitted dose curve; in most records, active means well fitted rising curve with a large enough effect; inconclusive means small, poorly fitted or top-dose-only effect; inactive means no such curve, though single readings can be large or run the other way. Potency means the concentration at half of the fitted maximal effect.

Under each structure: Marburg entry inh	SARS PLpro yeast	Cruzain noTriton	RE007 growth inh	LASV entry inh	2A StopGo	NS1 inh	Cruzain inh Det
- Oc1ccc(C(=Nc2ccccc2)c2ccccc2)c(O)c1
    7%[46.1 µM]	x	x	-20%	-17%[46.1 µM]	-11%	x	x
- O=C(/C=C/C=C/c1ccccc1)CC1(O)C(=O)Nc2ccccc21 (stereo not drawn)
    0%[46.1 µM]	-5%	x	1%	u	u	x	x
- COCCCNC(=O)CSc1nc2nc(C)c(Cc3ccccc3Cl)c(C)n2n1
    5%[46.1 µM]	x	6%	x	-3%[46.1 µM]	-17%	x	-1.0%
- COc1cc(OC)nc(Oc2ccc(N)c(C)c2)n1
    -2%	0%	x	3%	-5%	-2%	1%	x
- CCCNS(=O)(=O)c1ccc(OCC(=O)Nc2ccc3c(c2)OCCO3)cc1
    0%	5%	2%	4%	11%	x	-6%	-2.1%
- O=C(CCc1nnc(-c2ccc(-c3ccccc3)cc2)o1)NCCc1ccccn1
    u	-1%	x	21%	u	-16%	-5%	x
- CCC(CC)NC(=O)COn1nnc2ccc(S(=O)(=O)N3CCOCC3)cc21
    2%	-14%	x	-14%	21%	-19%	x	x
- CCn1cc(C(=O)N2CCn3c(nc4ccccc43)C2)c(=O)c2ccc(C)nc21
    -1%	-3%	-2%	-7%	x	-8%	-6%	-5.6%
- Cc1[nH]n(-c2ccccc2)c(=O)c1C=NC1CCCCCC1
    -12%	0%	x	2%	13%	39%[activator]	-3%	x
- O=C(CN1CCN(c2ccccn2)CC1)Nc1ccc2ccccc2c1
    u	-23%	-4%	15%	-10%	14%	-45%	-10%
- CC(C)NC(=O)c1ccc2c(=O)n(CC3CCCO3)c(=S)[nH]c2c1 (stereo not drawn)
    -4%[46.1 µM]	0%	x	0%	8%	-27%	x	x
- COc1cccc(CN(C)C(=O)CC23CC4CC(CC(C4)C2)C3)c1OC
    u	-1%	x	7%	-27%	u	-42%	x
- COC(=O)CNC(=O)C1CCN(S(=O)(=O)c2cccc3nsnc23)CC1
    -1%&-1%[46.1 µM]	u	0%	-21%	0%[46.1 µM]	-14%&-14%	11%	-4.0%
- CC(=O)Nc1ccc(N2CCOCC2)c(C(=O)Nc2cccc(C)c2)c1
    6%	1%	29%	-5%	-2%	-2%	2%	-2.0%
- O=C(CNC(=O)c1ccc(Br)o1)Nc1cccc(S(=O)(=O)N2CCCC2)c1
    -15%[46.1 µM]	3%	x	-12%	-2%	15%	x	x
- O=C1c2ccccc2C(=O)C12OC(c1ccccc1)C1(C(=O)c3ccccc3C1=O)C2c1cccc([N+](=O)[O-])c1 (stereo not drawn)
    x	11%	7.9µM*	x	x	x	14%	0.1%
- O=C1N2CCSC2=NC1(Nc1ccccn1)C(F)(F)F (stereo not drawn)
    -16%[46.1 µM]	-4%	-13%	0%	10%	-6%	3%	0.3%
- CC(C)CC(=O)Nc1ncnc2c1C(=O)CC(C)(C)C2
    7%&7%[46.1 µM]	-10%	-12%	-9%	1%	40%[activator]	4%	0.9%
- NC1=NC(c2cn(-c3ccccc3)nc2-c2cccs2)n2c(nc3ccccc32)N1 (stereo not drawn)
    11%&11%	15%	-5%	-1%	5%	-5%	-7%	-5.0%
- CCN(CC(=O)Nc1ccc(NC(C)=O)cc1)C(=O)C1CCN(C(=O)c2ccccc2C)CC1
    25%[46.1 µM]	x	x	-2%	11%	-5%	x	x
- O=C(Nc1cccc(Cl)c1)OCc1cncs1
    u	-14%	-6%	u	7%	-18%	-13%	-6.7%
- O=C(O)C1C2C=CC(O2)C1C(=O)NC1CCCc2ccccc21 (stereo not drawn)
    2%	-5%	-6%	12%	4%	-9%	4%	0.7%
- O=C(CSc1nnc(-c2ccco2)o1)c1ccccc1Cl
    34%[46.1 µM]	-2%	x	-14%	u	66%[activator]	-4%	x
- CCOc1ccc(N(CC(=O)NCCc2ccccc2)C(=O)c2csnn2)cc1
    -1%[46.1 µM]	1%	x	0%	-14%[46.1 µM]	22%	6%	x
- N#CC12C(N)=NC3(OCCO3)C1(C#N)C1=C(CCC1)NC2c1ccccc1 (stereo not drawn)
    12%	-2%	2%	-6%	1%	-4%	-9%	3.1%
- C[n+]1ccn(CC(=O)c2cccs2)c1
    22%	4%	x	0%	u	-17%	5%	x
- CCN(CC)CCNC(=S)Nc1ccc2nc(N3CCN(CC)CC3)cc(C)c2c1
    u	1%	x	-2%	-20%[46.1 µM]	-15%	-2%	x
- COC(=O)Nc1nnc(-c2ccccc2OC)s1
    u	-4%	x	u	u	27%	-8%	x
- NC(=O)C1(C(=O)O)OC1(c1ccc(Cl)cc1)c1ccccc1Cl (stereo not drawn)
    u	x	x	5%	10%[46.1 µM]	-18%	x	x
- Cc1ccc(-c2csc3nc(SCC(=O)N(C)C)n(Cc4ccccc4)c(=O)c23)cc1
    u	17%	25%	35%	u	0%	u	-3.7%
- CN(Cc1cc2ccccc2[nH]c1=O)S(C)(=O)=O
    -1%	8%	8%	0%	7%	7%	2%	7.5%
- CCN1CCN(S(=O)(=O)c2cc(C)c(OC)cc2C)CC1
    -2%	1%	0%	9%	-22%	3%	-1%	3.3%
- CCOC(=O)C1(Cc2cccc(OC)c2)CCN(Cc2cccc3cnccc23)CC1
    x	0%	x	6%	x	-13%	1%	x
- C=CCc1c(Cl)nc(C)nc1NCc1ccccc1
    -27%[46.1 µM]	7%	x	18%	-16%[46.1 µM]	-28%	-30%	x
- CC(/C=C/c1ccco1)=N/NC(=O)OC(C)(C)C
    0%	-12%	4%	11%	0%	34%[activator]	6%	-4.5%
- CC(=O)c1cccc(OCC(O)CNCC2CCCCC2)c1 (stereo not drawn)
    -23%	1%	x	14%	-5%	-1%	3%	x
- N#Cc1ccc(C23CC4(C2)[C@H](CN(Cc2ccc(-c5ccccc5)cc2)[C@@H]4c2ccccc2)C3c2ccccc2)cc1 (stereo partly drawn)
    x	1%	13µM*	-3%	x	-7%	5%	-4.2%
- Cc1ccc(F)cc1NC(=O)CSc1n[nH]c(N)n1
    -19%	-1%	x	12%	u	2%	x	x
- CC(C(=O)NCc1ccccc1Cl)n1ccc2cc(S(=O)(=O)N3CCCCC3)ccc21 (stereo not drawn)
    x	x	u	x	u	-14%	x	-5.0%
- COc1ccc(S(=O)(=O)Nc2ccccc2-c2nnn(CC(=O)Nc3ccccc3OC)n2)cc1
    u	-1%	u	-11%	u	u	u	-2.0%
- CCOCCCNC(=S)N1CCN(c2nc(-c3ccc(F)cc3)cs2)CC1
    x	1%	x	-4%	x	u	-14%	x
- CC(C)c1ccc(-n2cccc2/C=C2/C(=N)N3C=CSC3=NC2=O)cc1
    u	-38%	u	-3%	u	u	10%	-6.8%
- CC(=O)Nc1ccc(S(=O)(=O)NCC2CCC(C(=O)N3CCCCCC3)CC2)cc1 (stereo not drawn)
    -3%	4%	2%	-10%	3.5µM*	-17%	-25%	4.3%
- Cc1ccc(-c2noc(CN3CCN(C(c4ccccc4)c4ccccc4)CC3)n2)cc1
    11%	-47%	-3%	5%	-3%	-4%	-7%	-2.0%
- CC(C)C(OC(=O)c1cccs1)C(=O)NCCc1ccccc1 (stereo not drawn)
    -9%[46.1 µM]	-1%	x	4%	7%[46.1 µM]	0%	-7%	x
- COc1cccc(NC(=O)NC2CC(=O)N(c3ccc4c(c3)OCCO4)C2)c1 (stereo not drawn)
    u	3%	x	-18%	5%[46.1 µM]	-26%	x	x
- O=C(O)CCCNC(=O)Cc1ccccc1
    x	1%	x	1%	x	-9%	4%	x
- Cc1cc(NC(=O)c2ccc(Cn3nc(C)c(Br)c3C)o2)no1
    12%	0%	7%	12%	4%	x	-3%	0.9%
- CSc1ccc(S(=O)(=O)NC(C)c2ccccc2)cc1 (stereo not drawn)
    -16%[46.1 µM]	1%	x	12%	-18%[46.1 µM]	10%	-2%	x
- O=C(NCc1ccc2c(c1)OCO2)c1cc2c(s1)CS(=O)(=O)C2
    8%	4%	u	-23%	13%	5%	8%	1.1%
- CCC(=O)Nc1ccccc1C(=O)OCc1cc(=O)n2cc(C)sc2n1
    x	x	-6%	x	u	-22%	x	-0.6%
- CCOc1ccccc1/C=C/c1nc2ccccc2[nH]c1=O
    u	7%	x	-9%	-28%[46.1 µM]	-1%	-12%	x
- COc1ccc(-c2nonc2NC(=O)c2oc3ccc(F)cc3c2C)cc1OC
    x	1%	x	10%	x	-18%	1%	x
- CCOC(=O)Nc1cc(OCC)c(NC(=O)C2CC2)cc1OCC
    6%	5%	-9%	-23%	1%	x	-1%	1.0%
- C=CCc1ccc2oc(C(=O)OCC)cc(=O)c2c1O
    9%	0%	x	2%	17%	0%	-1%	x
- O=C(O)c1ccc(/C=N/N2CCN(c3ccccc3)CC2)cc1
    x	-5%	x	-1%	x	38%[activator]	-10%	x
- O=S(=O)(c1ccccc1F)N1CCN(Cc2nc3ccccc3[nH]2)CC1
    14%	17%	-1%	-14%	-7%	x	u	5.4%
- O=C(CSc1nc2c([nH]c3ccccc32)c(=O)n1-c1ccc(F)cc1)NCc1ccccc1
    x	x	12%	x	14%[46.1 µM]	-20%	x	0.6%
- Cc1ccc(C)c(S(=O)(=O)NCC(c2ccco2)S(=O)(=O)c2ccc(F)cc2)c1 (stereo not drawn)
    x	x	10%	x	u	27%	x	-5.3%
- O=C(c1ccccc1)c1ccc(N2CCOCC2)c(F)c1
    -15%	5%	11%	u	u	1%	2%	2.1%

Screening data: PubChem, National Center for Advancing Translational Sciences (NCATS)
